# From PubChem
# Insulin prom inh = inhibitors of insulin promoter-driven GFP, primary screen, imaging, TRM-6 cells (human fetal islet line), eGFP reporter, cell count; reporter expression induced with tamoxifen; inhibition, % at 2 µM; 0.9% of 130,000 active;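 active = inhibition above the mean plus 3 SD, with well images judged a real hit on visual review, cut at about 60% in these data, passing the limit was not always enough; inconclusive = inhibition over the cutoff but images rejected on review; inactive = inhibition not above the cutoff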
# GALR2 agonist = GALR2 receptor agonists, primary screen, cell-based; AID 803, 2007; activation, %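 (tested at 5 µM)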; Galanin receptor type 2 (Homo sapiens), O43603; GALR2-expressing cells, agonist activation read-out; 0.48% of 140,000 active;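 active = above mean plus 3 SD of all compounds, about 5% in these data, not always enough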;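 note: 0% = vehicle buffer wells and 100% = reference agonist at full effect; tested in CHO reporter cells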
# Target sequence (O43603 whole entry, looked up): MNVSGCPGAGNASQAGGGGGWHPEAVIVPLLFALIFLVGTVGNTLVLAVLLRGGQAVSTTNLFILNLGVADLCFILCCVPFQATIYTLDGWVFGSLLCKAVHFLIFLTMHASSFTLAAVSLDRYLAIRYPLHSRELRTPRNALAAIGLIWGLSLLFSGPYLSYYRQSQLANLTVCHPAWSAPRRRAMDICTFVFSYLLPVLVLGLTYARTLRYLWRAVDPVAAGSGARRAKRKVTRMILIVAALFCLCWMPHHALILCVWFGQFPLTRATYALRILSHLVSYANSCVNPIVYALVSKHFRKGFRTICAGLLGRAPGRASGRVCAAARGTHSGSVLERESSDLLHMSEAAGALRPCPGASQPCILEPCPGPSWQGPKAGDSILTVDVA
# RGS16-Gao HTS = modulators of RGS16 binding to Galphao, primary screen, biochemical, human proteins, multiplexed bead flow cytometry. Regulator of G-protein signaling 16 (Homo sapiens) + Guanine nucleotide-binding protein …. AID 1441, 2008. 0.38% of 220,000 active. binding response (% of control), % at 10 µM. bead-based flow cytometry RGS16-Galphao binding, fluorescence; actives lie on both sides;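 active = below 25% or above 175%, edge rows of some plates excepted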;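 note: Galphao activated by GDP with aluminum fluoride before binding; 100% = wells without compound and 0% = beads without RGS; some results beyond the cut were filed as inactive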
# Target sequence (O15492 whole entry, looked up): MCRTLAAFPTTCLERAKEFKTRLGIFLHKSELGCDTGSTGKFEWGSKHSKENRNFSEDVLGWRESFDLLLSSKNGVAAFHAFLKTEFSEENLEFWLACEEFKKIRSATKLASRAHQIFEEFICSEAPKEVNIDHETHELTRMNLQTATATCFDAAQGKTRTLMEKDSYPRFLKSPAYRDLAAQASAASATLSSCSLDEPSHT
# Target sequence (P09471 whole entry, looked up): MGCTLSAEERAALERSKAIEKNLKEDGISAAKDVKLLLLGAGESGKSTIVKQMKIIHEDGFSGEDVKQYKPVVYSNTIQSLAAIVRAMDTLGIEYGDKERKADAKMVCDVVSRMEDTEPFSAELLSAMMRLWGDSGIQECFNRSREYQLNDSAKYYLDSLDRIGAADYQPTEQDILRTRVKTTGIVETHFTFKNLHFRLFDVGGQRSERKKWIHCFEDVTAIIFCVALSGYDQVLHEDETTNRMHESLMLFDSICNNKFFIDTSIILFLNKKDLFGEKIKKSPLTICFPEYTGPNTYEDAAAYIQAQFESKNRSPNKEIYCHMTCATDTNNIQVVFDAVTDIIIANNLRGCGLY
# HSV augment = enhancers of HSV replication in host cells, fold increase, host cell viability | maximum fold increase | 0.005% of 220,000 active | AID 1956, 2009 | HSV replication augmentation in cells;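 active = peak rise of 1.5-fold or more in the series; inconclusive = self-fluorescent or not available for retest; tested in PC3 cells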;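 note: first round at 10 µM; read as green reporter fluorescence; hits show the peak of a series up to 25 µM; 1 = signal of infected wells without compound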
# PKD1 inh = inhibitors of human PKD1 kinase, biochemical, fluorescence polarization. Serine/threonine-protein kinase D1 (Homo sapiens), Q15139. PKD1 kinase fluorescence polarization assay. inhibition, %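 (about 10 µM by stock and volumes)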. 0.056% of 200,000 active. AID 797, 2007;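 active = inhibition of 50% or more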;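 note: controls were vehicle for no effect and a reference inhibitor for full effect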
# Insulin prom inh cell count = recorded beside Insulin prom inh, whose call it bears; normalized cell count, %; measured here: cell count, toxicity; reference of the scale not given here;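 cells exposed to compound for 48 h; stained nuclei by imaging scaled within each plate; lower means fewer cells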
# HSV augment primary fold = further read-out of HSV augment, marked with its call; fold increase; compound at 10 µM; measured here: primary screen fold increase 10 uM; tested in PC3 cells;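 GFP signal in the first replicate; 1 = infected wells without compound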
# * marks the source's active call; other numbers are inactive results; i = inactive; ? = inconclusive; . = no result given.
# Sample of the layout (2 entries):
smiles	PKD1 inh	HSV augment	RGS16-Gao HTS	GALR2 agonist	Insulin prom inh	Insulin prom inh cell count	HSV augment primary fold
COC(=O)c1sc2nc(CN3CCN(c4ccc(OC)cc4)CC3)[nH]c(=O)c2c1C	1	i	126	-0.2	.	.	1.1
COc1ccc(CNC(=S)Nc2cc(OC)ccc2OC)cc1	-4	i	99	-0.3	10	109	0.9

# The listing (from the top)
smiles	PKD1 inh	HSV augment	RGS16-Gao HTS	GALR2 agonist	Insulin prom inh	Insulin prom inh cell count	HSV augment primary fold
COC(=O)c1sc2nc(CN3CCN(c4ccc(OC)cc4)CC3)[nH]c(=O)c2c1C	1	i	126	-0.2	.	.	1.1
COc1ccc(CNC(=S)Nc2cc(OC)ccc2OC)cc1	-4	i	99	-0.3	10	109	0.9
Cc1ccc(NC(=S)NC(=O)c2ccc(-c3ccccc3)cc2)cc1	-4	i	.	0.1	12	117	0.91
CCC(=O)Nc1c2c(nn1-c1ccc(OC)cc1)CS(=O)C2 (stereo unspecified)	10	i	100	-2.9	.	.	0.8
Cc1ccnc(NC(=O)c2ccc([N+](=O)[O-])o2)c1	2	i	181	-2.4	33	86	0.78
CC(=O)OC1=Cc2c(ccc3ccc(=O)oc23)OC1(C)C	-1	i	305	-3.6	13	70	0.9
COc1cc(NC(=O)C23CC4CC(C2)CC(n2nnc(C)n2)(C4)C3)c(OC)cc1Cl	-8	i	107	-2.0	38	154	1.1
Cc1coc(NC(=O)CSc2nc(-c3ccncc3)cc(C(F)(F)F)c2C#N)n1	-13	.	100	-1.4	44	92	.
O=C(Nc1cccc2c1C(=O)NC2=O)c1ccccc1[N+](=O)[O-]	.	i	98	.	.	.	1
O=C1Nc2ccccc2C1(O)C/C(=N/O)c1ccccc1 (stereo unspecified)	-1	i	102	.	10	168	1
COC(Cn1c(C)c(C(C)=O)c(C(C)=O)c1C)OC	-1	.	103	-1.1	-50	300	.
COCCNC(=O)c1ccc(-n2c(SCc3ccncc3)nc3ccccc3c2=O)cc1	-10	i	104	.	.	.	0.88
CN(C(=O)c1cccc(C#N)c1)c1nnc(-c2ccncc2)s1	-12	i	113	-2.7	.	.	1.1
O=C(c1cccs1)N1CCN=C1SCc1ccccc1F	-4	i	98	.	58	151	0.89
CCOC(=O)CN(c1cc([N+](=O)[O-])ccc1OC)S(C)(=O)=O	1	i	109	.	.	.	0.88
COc1ccc(NC(=O)/C(=C/c2ccc(OC(C)=O)c(OC)c2)NC(C)=O)cc1	0	i	111	-0.4	-7	101	1
COc1ccc(NC(=O)CC2C(=O)N(c3ccc(Cl)cc3)C(=S)N2CCc2ccncc2)cc1 (stereo unspecified)	5	i	99	1.3	4	119	0.76
CC(C)OC(=O)c1cc2c(ccn2C)n1CC(=O)N(Cc1ccccc1)c1ccccc1	-5	i	110	-0.8	-40	74	0.81
Cc1ccc(NC(=S)N(C)N)cc1Cl	-4	i	98	.	.	.	1
COc1ccc([N+](=O)[O-])cc1NC(=O)CCSCCc1ccccn1	-4	i	102	.	.	.	1
O=C(COC(=O)CCC(=O)c1cccs1)NC(=O)c1ccc(OC(F)F)cc1	-7	i	105	.	.	.	0.76
O=C(c1cc(N2CCCCC2)nc2ccccc12)N1CCOCC1	-6	i	98	0.2	-8	110	0.89
Cc1ccc(NC(=O)CSc2nnc(-c3cccs3)o2)cc1S(=O)(=O)N(C)C	0	i	106	.	.	.	1
Cc1cc2cc(CNC(=O)c3ccc(Br)o3)ccc2n1C	.	?	99	.	.	.	.
O=C(C1=C[C@H](c2ccc(C(F)(F)F)cc2)C[C@H](OCCCCO)O1)N1CCN(Cc2ccccc2)CC1	4	.	98	.	.	.	.
CC(=O)Nc1c(Cl)n(C(C)=O)c2ccccc12	-2	i	87	0.1	4	99	0.91
O=C(Nc1ccc(Br)cc1)c1ccc(Br)c(S(=O)(=O)Nc2cccnc2)c1	-9	i	123	0.0	-3	75	1
OCCC1CN(Cc2nc3ccccc3s2)CCN1CCc1ccccc1 (stereo unspecified)	0	i	114	.	.	.	1
Cc1nn(CCOc2ccccc2)c(=O)n1-c1ccccc1F	-2	i	102	-0.3	.	.	0.85
Nc1nc(NCC2CCCO2)nc(Nc2ccccc2)c1[N+](=O)[O-] (stereo unspecified)	-1	i	34	0.5	32	117	0.83
CCN(CC)Cc1c(O)c(Cl)cc2c(C)cc(=O)oc12	7	i	97	.	.	.	1.1
COC(=O)c1sccc1NC(=O)CSc1ccc(Cl)cc1	0	i	87	-2.1	.	.	0.91
COCCNC(=O)c1onc(CSc2ccc(F)cc2)c1C(=O)NCCOC	.	i	101	.	.	.	0.69
CC(=O)NC(c1ccccc1)c1cc([N+](=O)[O-])c2cccnc2c1O (stereo unspecified)	-2	i	100	.	.	.	0.99
O=c1c2c3c(sc2[nH]c(=S)n1Cc1ccco1)CCC3	.	i	98	.	.	.	1.2
Clc1ccc(/C=C/c2nc3ccccc3[nH]2)c(Cl)c1	-1	i	101	-1.7	.	.	0.91
Cn1c(Cn2c(=O)sc3ccccc32)nnc1SCC(=O)Nc1cccc(Cl)c1	-6	i	98	-1.4	.	.	1.4
Cc1nc(CS(=O)(=O)c2ccccc2)cc(Sc2ccc(Cl)cc2Cl)n1	3	i	94	0.0	18	123	0.81
Cc1nc(-c2ccc(NS(C)(=O)=O)cc2)cs1	-2	i	82	-1.3	73*	46*	0.86
O=C(CSc1nn(-c2ccc(Cl)cc2)c(=S)s1)N1CCN(C(=O)c2ccco2)CC1	2	i	97	-1.7	0	93	0.77
CCOc1ccc(NC(=S)NCc2ccc3c(c2)OCO3)cc1	.	i	102	.	.	.	0.97
CCOC(=O)C(NC(=O)Nc1ccc(O)cc1)(c1ccccc1)C(F)(F)F (stereo unspecified)	2	i	91	-1.4	39	109	0.88
COC(=O)CCCCCNC(=S)Nc1ccc2[nH]c(=O)[nH]c2c1	.	i	95	.	.	.	0.9
COc1cc2cc(CN(CCO)S(=O)(=O)c3ccccc3)c(=O)[nH]c2cc1OC	-3	i	119	-1.4	-39	99	0.93
COC(=O)COc1cccc(-n2cnnn2)c1	0	i	98	-1.2	.	.	1
COc1cccc(C(=O)n2cnnc2N)c1OC	-9	i	96	0.0	-52	158	1
CCOC(=O)CNC(=O)CSc1nc(-c2ccc(C)cc2)ns1	2	i	106	.	-42	181	0.9
C=CCN1CCN(C(CC(C)C)c2nnnn2CCOC)CC1 (stereo unspecified)	-10	i	97	-0.7	15	126	0.9
CCOC(=O)c1cc(NC(=O)C2C3CCC(O3)C2C(=O)O)cc(C(=O)OCC)c1 (stereo unspecified)	-5	i	98	-0.2	33	76	0.91
CCn1c(Cc2ccc(OC)cc2)nnc1SCc1nc2ccccc2c(=O)[nH]1	-6	i	104	.	-25	123	0.86
CCCn1c(SCC(=O)Nc2ccccc2N2CCOCC2)nc2c1c(=O)n(C)c(=O)n2C	0	i	98	-3.6	38	125	1.1
O=C(CSc1n[nH]c(=O)n1-c1ccc2c(c1)OCCO2)Nc1ccccc1	.	i	99	.	.	.	1.1
Cc1ccc2c(CNCc3ccco3)cc(=O)oc2c1	-7	i	.	0.2	-33	176	1
CCSS(=O)(=O)c1cccc2cccnc12	.	i	90	.	.	.	1
Cc1nc2ccccc2c(=O)n1C1CCCCCC1	4	i	99	-2.3	29	104	0.82
CN1C(=O)C2(C(C#N)=C(N)N(c3cc(Cl)cc(Cl)c3)C3=C2C(=O)CCC3)c2ccccc21 (stereo unspecified)	2	i	102	-2.2	-22	139	0.69
CC(C)CCCNc1nc(N2CCOCC2)nc(N2CCOCC2)n1	-5	i	98	-1.4	.	.	0.88
Cc1nc(CCNC(=O)Cc2ccc(Cl)cc2)cs1	-22	i	81	-2.5	.	.	0.93
CCC(c1nnnn1C(C)(C)C)N(Cc1cc2cccc(C)c2n2nnnc12)C1CCCC1 (stereo unspecified)	-2	.	.	-0.8	27	124	.
O=C(CSc1nc2ccccc2[nH]1)c1ccc(Cl)s1	7	i	90	1.3	11	45	0.98

# More entries:
smiles	PKD1 inh	HSV augment	RGS16-Gao HTS	GALR2 agonist	Insulin prom inh	Insulin prom inh cell count	HSV augment primary fold
CC(C)(C)c1ccc(S(=O)(=O)NCCOCC(F)(F)C(F)F)cc1	-7	i	98	-1.4	-41	174	0.94
O=C(CSc1nnc(Nc2ccccc2)s1)NCc1ccco1	6	i	107	-0.3	-24	77	1.1
CN1CCC(N(C)CC(=O)Nc2cccc(Oc3ccccc3)c2)CC1	-3	i	94	-3.0	.	.	0.77
C=CCN1C(=O)C(O)(CC(=O)c2ccc(Cl)cc2)c2ccccc21 (stereo unspecified)	4	i	86	-1.4	-264	57	0.88
O=C(/C=C/c1ccc(-c2ccccc2)o1)c1ccccc1	1	i	93	-1.4	-17	98	0.95
CC1CC(C)CN(S(=O)(=O)c2ccc(C(=O)NCCCn3ccnc3)cc2)C1 (stereo unspecified)	-7	i	103	-1.5	.	.	0.65
CCC(COC)NC(=O)CCc1nnc(Cc2cccc(C(F)(F)F)c2)o1 (stereo unspecified)	-2	i	105	.	.	.	0.95
CN(C)C(CNc1ncnc2sc3c(c12)CCCCC3)c1ccco1 (stereo unspecified)	-11	i	104	.	-89	98	1.1
Cc1cc(C)nc(-n2nc(C)cc2NC(=O)c2ccc(S(=O)(=O)N3CCOCC3)cc2)n1	.	i	100	.	.	.	0.87
CNC(=S)N(CCc1c(C)[nH]c2ccccc12)Cc1ccco1	0	i	100	.	11	78	0.96
CCOC(=O)c1cc2c(ccn2-c2ccc(F)cc2)n1CC(=O)N1CCN(C(=O)c2ccco2)CC1	5	i	100	-0.6	.	.	0.97
O=C(N/C(=C/c1ccc2c(c1)OCO2)C(=O)N1CCOCC1)c1cccs1	-1	i	101	-2.4	.	.	1
CC1=CC(C)(C)N(C(=O)CN2C(=O)c3ccccc3C2=O)c2ccccc21	2	i	102	-3.1	.	.	0.87
C[C@@H](O)c1nc2ccccc2n1N	11	.	117	-0.2	-25	115	.
COc1cc(OC)c2c(-c3ccccc3)cc(=O)oc2c1C(CC(=O)N1CCN(c2ccccc2)CC1)c1ccc2c(c1)OCO2 (stereo unspecified)	.	i	97	.	.	.	0.8
CCOC(=O)c1c(NC(=S)Nc2ccccc2)sc2c1CCN(CCc1ccccc1)C2	-4	.	108	-1.0	-233	147	.
Fc1ccc(C2=CSC3=NCCN23)cc1	8	i	97	.	.	.	0.9
O=C(CCNC(=O)c1ccccc1Cl)NC1=NCCS1	-9	i	111	.	8	63	0.95
N#Cc1ccc(C23CC4(C2)[C@H](CN(P(=O)(c2ccccc2)c2ccccc2)[C@@H]4c2ccccc2)C3c2ccc(Cl)nc2)cc1 (stereo partly specified)	.	i	109	.	.	.	0.9
Cc1ccc(-c2cc(C(=O)Nc3cc(C)on3)c3ccccc3n2)cc1	7	i	98	-1.5	-34	65	0.81
CCCCOc1ccc(S(=O)(=O)Nc2cc(OC)ccc2OC)cc1	-7	i	.	-2.2	-20	39	1
O=[N+]([O-])c1cccc(-n2cccc2/C=N/Nc2nc(N3CCCCC3)nc(N3CCCCC3)n2)c1	4	i	110	.	22	125	0.89
CC(/C=C1\SC(=O)N(CC(=O)Nc2cccc(O)c2)C1=O)=C\c1ccccc1	-2	i	103	-1.0	-19	94	0.87
Cc1cc(-c2csc(NC(=O)c3ccc(C#N)cc3)n2)c(C)n1Cc1ccccc1	-3	i	101	0.1	.	.	1.1
CN(CCO)C(=O)c1cccc2c1-c1ccccc1C2=O	-11	i	103	-0.5	23	47	1.1
CCCCCn1c(Sc2nc3ccccc3s2)nc2c1c(=O)[nH]c(=O)n2C	0	i	101	-0.1	-17	101	0.8
CCCCc1cc(=O)oc2c(CN(CC)CC)c(O)c(Cl)cc12	-11	i	104	6.8	0	145	1.1
COCCn1c(SCC(=O)NC(=O)NC(C)C)nc2ccccc21	-10	i	100	-1.3	-12	184	0.93
CN(CC(=O)NCCN1CCN(Cc2ccccc2)CC1)S(=O)(=O)c1cccc2nsnc12	-10	i	102	-2.6	-7	138	1.1
